Source: PubChem BioAssay (National Center for Advancing Translational Sciences (NCATS))
VDR inhibitor: inhibitors of human vitamin D receptor; P11473; VDR-SRC2-3 peptide fluorescence polarization, 2 h; Potency, µM, for inactives: max response, negative = inhibition, most hits filed as inhibitors; 0.93% of 400,000 active; AID 504847; active = well fitted inhibition curve with a large enough effect; inconclusive = small, poorly fitted or top-dose-only effect, or another doubt; inactive = no such curve, though single readings can be large or run the other way; note: series mostly up to about 120 µM
Target sequence (P11473 whole entry, looked up): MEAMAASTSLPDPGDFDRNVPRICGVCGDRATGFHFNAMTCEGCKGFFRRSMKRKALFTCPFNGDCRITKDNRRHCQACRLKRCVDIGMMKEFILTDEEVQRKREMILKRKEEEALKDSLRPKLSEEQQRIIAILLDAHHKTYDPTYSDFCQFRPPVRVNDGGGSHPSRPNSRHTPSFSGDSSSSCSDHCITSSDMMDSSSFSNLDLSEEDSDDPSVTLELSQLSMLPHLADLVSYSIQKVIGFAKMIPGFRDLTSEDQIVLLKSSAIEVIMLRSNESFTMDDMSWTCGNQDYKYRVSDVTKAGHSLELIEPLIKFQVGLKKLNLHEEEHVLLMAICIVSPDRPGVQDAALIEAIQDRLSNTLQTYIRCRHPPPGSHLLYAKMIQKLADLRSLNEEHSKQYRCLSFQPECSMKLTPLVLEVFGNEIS
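VDR–SRC2-3 interaction, FP format. Cmpds 23 nl via pintool, brief spin, 2 h ambient incubation.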
Numbers without * were called inactive; u = inconclusive; & = joins results of further samples. % is set by controls: 0 for no effect and ±100 for the full control effect; potency is the fitted concentration of half-maximal effect.

VDR inhibitor	compound
11.0%	COc1cc(NC(=O)CSc2nc3ccccc3nc2Cc2ccc(Cl)cc2)cc(OC)c1
-0.6%	Cc1ccc(CSc2nnc(NC(=O)Cn3cnc4ccccc4c3=O)s2)cc1
23.6%	CCn1c(=O)c(C(=O)NCCN2CCCCC2)c(O)c2ccccc21
-19.7%	Cc1nc2sc(C(c3cccs3)N3CCN(c4ccccc4)CC3)c(O)n2n1 (stereo not drawn)
-7.3%	Cc1ccc(NC(=O)CSc2nnc(-c3cccs3)o2)cc1S(=O)(=O)N1CCCCC1
-22.0%	Cc1cccc(NS(=O)(=O)c2cccc(C(=O)N3CC(C)OC(C)C3)c2)c1 (stereo not drawn)
11.9%	COc1ccc(-c2nc(Cn3c(=O)cc(-c4ccccc4)c4c(C)nn(C)c43)c(C)o2)cc1OC
0.6%	CC(=O)Nc1ccc(NC(=O)C(C)Oc2ccccc2F)cc1 (stereo not drawn)
-13.7%	CCOc1ccccc1Oc1cn[nH]c1-c1ccc(OCC(=O)NN)cc1O
u	CCOC(=O)C1=C(C)N(CCCCCC(=O)O)C(=O)NC1c1ccccc1OS(=O)(=O)c1ccc(C)cc1 (stereo not drawn)
-19.2%	O/N=C/C1=C(Cl)c2ccccc2CC1
-4.9%	N#Cc1c(-c2ccccc2)nc(SCC(=O)Nc2ccccc2)[nH]c1=O
-2.7%	COc1ccc(C(=O)Nc2nc3n(n2)C(c2ccccc2)C=C(c2ccccc2)N3)cc1 (stereo not drawn)
4.6%	O=[N+]([O-])c1ccc(N2CCCC2)nc1
-2.2%	COc1ccc(CCN2CC(C(=O)N(C)CCn3nc(C)cc3C)CCC2=O)cc1 (stereo not drawn)

Sorted by the number under VDR inhibitor (falling): 3 from the list above.
compound	VDR inhibitor
CCn1c(=O)c(C(=O)NCCN2CCCCC2)c(O)c2ccccc21	23.6%
COc1cc(NC(=O)CSc2nc3ccccc3nc2Cc2ccc(Cl)cc2)cc(OC)c1	11.0%
CCOc1ccccc1Oc1cn[nH]c1-c1ccc(OCC(=O)NN)cc1O	-13.7%

Next records follow.
VDR inhibitor	compound
-13.2%	Cc1onc(-c2c(F)cccc2Cl)c1C(=O)NCc1ccc(F)cc1
-15.3%	CCOc1ccc(NC(=O)Cn2nnc(-c3ccccc3NC(=O)c3cccs3)n2)cc1
-15.4%	COc1ccc(-c2sc(NC(C)=O)nc2-c2ccccc2)cc1
-15.6%	CCN1CCN(C(=O)CSc2nc3c(c(=O)n(C)c(=O)n3C)n2C)CC1
10.7%&10.1%	CCCCCCOC(=O)C1(O)CC2OC1(C)n1c3ccccc3c3c4c(c5c6ccccc6n2c5c31)C(=O)NC4 (stereo not drawn)
-14.1%	CCCC/C=C/[C@H](c1ccccc1)[C@H](CO)Cc1ccc([N+](=O)[O-])cc1
-0.6%	O=C(O)c1cc(NC(=S)NC(=O)C(c2ccccc2)c2ccccc2)ccc1Cl
u	CCOC(=O)c1[nH]c(C)c(C(=O)N2CCN(c3ccccc3OC)CC2)c1C
2.4%	COc1ccccc1C(=O)NCCC(=O)NC1CCC(C)CC1 (stereo not drawn)
2.1%	COCCNS(=O)(=O)c1ccc(C)c(C)c1C
17.9%	CCCOc1ccc(NC(=O)CC2C(=O)N(c3cccc(C)c3)C(=O)N2CCc2ccncc2)cc1 (stereo not drawn)
8.3%	COc1cccc(CNC(=O)C2CCCN(S(=O)(=O)c3cccc4nonc34)C2)c1 (stereo not drawn)
-20.5%	O=C(O)c1ccc2c(c1)NC(=O)C(N1CCCC1)S2 (stereo not drawn)
13.1%	COc1ccc(NC(=O)c2oc3ccccc3c2NC(=O)C23CC4CC(CC(C4)C2)C3)cc1
-14.2%	CCN1CCN(Cc2ccc(NC(=O)c3cc(NC(=O)c4cnn(-c5ccccc5)c4N)cc(OC)c3)cc2C(F)(F)F)CC1
-1.7%	Cc1ccc(NC(=O)C2CCCN(C(=O)c3ccc(Cl)cc3)C2)c(C)c1 (stereo not drawn)
14.2%	Cc1c(C)n2c(SCC(=O)NC3CCCCC3)nnc2[nH]c1=O
-12.4%	C[C@H](CO)N1C[C@H](C)[C@@H](CN(C)Cc2ccccc2)Oc2ccc(NC(=O)CCCCCC(=O)Nc3ccccc3N)cc2C1=O
0.8%	Cc1cc(C)c(NC(=O)CSc2nc3ccc(NC(=O)CSc4nnnn4-c4ccccc4)cc3s2)c(C)c1
-0.8%	Cc1nc2cccnc2n1-c1cccc(C(=O)N2CCN(c3ccc(Cl)cc3)CC2)c1
0.9%	COc1cc(NC(=O)c2ccc(-c3cccc(F)c3)o2)ccc1NC(=O)c1ccccc1Cl
-0.4%	COc1cccc(CN2CC(C(=O)NCc3ccc(C)o3)CCC2=O)c1 (stereo not drawn)
3.2%	Cc1ccc(S(=O)(=O)N2CCCCC2)cc1NC(=O)COC(=O)Cc1cccc2ccccc12
9.3%	CC(=O)Nc1ccc(S(=O)(=O)NCC2CCC(C(=O)NCCCN3CCCC3=O)CC2)cc1 (stereo not drawn)
3.6%	COc1ccc2nc(NC(=O)CSc3nc(C)cc(=O)[nH]3)sc2c1
0.5%	COc1cccc(-c2nnn(CC(=O)N(CC(C)C)C3CCS(=O)(=O)C3)n2)c1 (stereo not drawn)
u	Cn1cccc1C(=O)C(=O)Nc1cc(Cl)cc(Cl)c1
u	CCc1ccc(N2C(=O)C(Cl)=C(N3CCOCC3)C2=O)cc1
-21.0%	CC(C)(C)c1cc(C(=O)NNS(=O)(=O)c2ccccc2)n[nH]1
9.3%	Fc1ccc(-n2cc(-c3ccccc3)c3c(N4CCOCC4)ncnc32)cc1

Three of these compounds, set out differently:
Structure: CC(C)(C)c1cc(C(=O)NNS(=O)(=O)c2ccccc2)n[nH]1
  VDR inhibitor: -21.0%

Structure: Cn1cccc1C(=O)C(=O)Nc1cc(Cl)cc(Cl)c1
  VDR inhibitor: u

Structure: Cc1ccc(S(=O)(=O)N2CCCCC2)cc1NC(=O)COC(=O)Cc1cccc2ccccc12
  VDR inhibitor: 3.2%

Following part
VDR inhibitor	compound
-0.4%	COCc1cc(C)nc(N2CCNCC2)c1C#N
7.3%	CCCCNC(=O)C1CCCN1S(=O)(=O)c1cccc2nsnc12 (stereo not drawn)
-18.9%	Cc1nc(=O)c(-c2ccccc2)c(C)n1-c1ccccc1Cl
-1.8%	CCN(C(=O)COC(=O)c1cc2c(s1)CCCCC2)C1CCS(=O)(=O)C1 (stereo not drawn)
-0.9%	CCc1nc(CN2CCN(Cc3ccc(F)c(F)c3)C(CCO)C2)c(C)[nH]1 (stereo not drawn)
-5.4%	CC(=O)N[C@@H](Cc1c[nH]c2ccccc12)C(=O)OCC(=O)Nc1ccc2c(c1)OCO2
-9.8%	COc1cccc(-c2nc(CS(=O)(=O)CC(=O)NCCc3ccc(Cl)cc3)c(C)o2)c1
-9.0%	CC(=O)c1cccc(NC(=O)c2cccc(NC(=O)c3ccco3)c2)c1
-15.1%	CC1(C)CC(=O)c2cc(-c3nc(-c4ccc(Cl)cc4)cs3)c(=O)[nH]c2C1
-8.7%	COc1ccc(C(=O)C2CCCN(Cc3nc4ccccc4nc3C)C2)cc1OC (stereo not drawn)
-2.5%	O=C(NCCc1ccncc1)Nc1ccc(Cl)cc1
16.7%	CSCCC(NC(=O)c1ccco1)C(=O)N1CCC(C(N)=O)CC1 (stereo not drawn)
17.0%	O=C(COc1ccc(Cl)cc1)N1CCCCCCC1
1.5%	CCCS(=O)(=O)c1ncc(Cl)c(C(=O)Nc2c(C(=O)c3ccccc3)oc3ccccc23)n1
14.8%	CC(=O)N1Cc2[nH]c3ccccc3c2CC1C(=O)O (stereo not drawn)

Two neighbouring records from above, quoted:
VDR inhibitor	compound
1.5%	CCCS(=O)(=O)c1ncc(Cl)c(C(=O)Nc2c(C(=O)c3ccccc3)oc3ccccc23)n1
14.8%	CC(=O)N1Cc2[nH]c3ccccc3c2CC1C(=O)O (stereo not drawn)

Other compounds.
VDR inhibitor	compound
-3.8%	c1ccc2c(NC3CCCC3)nnc(NC3CCCC3)c2c1
3.2%	O=C1C(Cl)=C(Nc2cccc(O)c2)C(=O)N1Cc1ccccc1
-7.2%	CCOC(=O)c1nnn(CC(=O)N2N=C(c3ccc(Cl)cc3)CC2c2ccc(OC)cc2)c1C(=O)OCC (stereo not drawn)
8.3%	Cn1c(N)c(C(=O)COC(=O)c2ccc(F)cc2Cl)c(=O)n(C)c1=O
-6.5%	O=C(O)c1ccc(-c2nc(-c3ccccc3Cl)cs2)cc1
5.0%	CCC1(c2ccc(F)cc2)NC(=O)N(CC(=O)N2CCN(S(=O)(=O)c3ccc(C)cc3)CC2)C1=O (stereo not drawn)
-9.0%	CS(=O)(=O)N(CC(=O)NCc1ccccc1Cl)Cc1ccccc1
23.6%	N#Cc1ccccc1S(=O)(=O)N1CCCC(c2nc3c(nnn3Cc3cccc(Cl)c3)c(=O)[nH]2)C1 (stereo not drawn)
-11.2%	CCOC(=O)c1ccc(NC(=O)C2(c3ccc(OC)cc3)CCOCC2)cc1
-2.3%	O=C(Nc1cccc(N=Cc2cc(Br)cc(Br)c2O)c1)c1ccco1
-3.7%	O=C(CN1CCN(S(=O)(=O)c2ccccc2)CC1)N1CCc2ccccc21
-22.1%	CC1(C(=O)N2CCC(CC3CC(c4cccc(Br)c4)=NO3)(C(=O)NCC3CCCCC3)CC2)CC1 (stereo not drawn)
4.7%	CCN(c1ccccc1)S(=O)(=O)c1cccc(C(=O)N2CCN(S(=O)(=O)c3ccccc3)CC2)c1
21.5%	COCCCNC(=O)C1CCCN(c2nn3cc(-c4ccc(C)cc4)nc3s2)C1 (stereo not drawn)
6.5%	CC(=O)N1N=C(c2cccc(NS(=O)(=O)c3ccc(C)cc3)c2)CC1c1ccco1 (stereo not drawn)
-19.3%	O=C(Cn1c(NCCO)nc2ccccc21)NCCc1ccccc1
u	Nc1ccccc1C(O)(Cc1ccccc1)c1ccccc1 (stereo not drawn)
-6.9%	CCNC(=O)NC(=O)c1csc([N+](=O)[O-])c1
-14.1%	COc1ccc(CCN2CCCC(CN(C)C(=O)c3ccoc3C)C2)cc1 (stereo not drawn)
5.4%	C=CCOc1ccc2ccccc2c1CNCCCN1CCOCC1
-8.9%	C=C[C@@H]1c2ccccc2N(S(=O)(=O)c2ccc(C)cc2)[C@H](c2ccc(OC(C)=O)cc2)C1(C#N)C#N
-6.3%	COc1cccc(Nc2nc(-c3cccnc3)cs2)c1
-15.4%	COc1cc(CNc2ccc3c(c2)CCC3)cc(OC)c1O
u	O=C(NCCn1ccc2ccccc21)c1cccc([N+](=O)[O-])c1
-7.1%	CCOC(=O)CCN
-21.4%	CC(=O)NC(Cc1ccccc1C)C(=O)NC1CCN(C(=O)NCc2ccccc2)CC1 (stereo not drawn)
-3.2%	CC(=O)CSc1nc2ccc(Nc3nc(N4CCOCC4)nc(N4CCOCC4)n3)cc2s1
-11.7%	Cc1ccc(-n2ncc3c(=O)n(CC(=O)N(C(C)C)C(C)C)cnc32)cc1
5.8%	CCOc1cc(N2CCOCC2)c(OCC)cc1NC(=O)c1cc(-c2ccco2)nc2ccccc12
0.1%	CSc1ccc(C(=O)NC2CCSc3ccccc32)cc1 (stereo not drawn)

Quoted at random: 2 entries already listed, in no set order.
VDR inhibitor	compound
-15.4%	COc1cc(CNc2ccc3c(c2)CCC3)cc(OC)c1O
-6.3%	COc1cccc(Nc2nc(-c3cccnc3)cs2)c1

Later entries:
VDR inhibitor	compound
-3.9%	CC1Cc2ccccc2N1C(=O)COC(=O)C1(c2ccccc2F)CCCC1 (stereo not drawn)
-5.6%	COc1ccc(/C=N/NC(=O)c2ccc(O)cc2O)cc1CSc1ccccn1
-3.5%	CCN(C(=O)COC(=O)[C@H](C)N=C1NS(=O)(=O)c2ccccc21)C1CCS(=O)(=O)C1 (stereo partly drawn)
11.6%	COc1ccc(OC)c(NC(=O)Cn2cc(C(=O)c3cccs3)c3ccccc32)c1
-24.8%	CN1CCc2c(OCC(=O)N3N=C(c4cccs4)CC3c3ccc(F)cc3)cccc2C1=O (stereo not drawn)
-0.2%	Cn1c(N)c(C(=O)COC(=O)c2nc(Cl)ccc2Cl)c(=O)n(C)c1=O
-0.2%	CCCC1CCC(c2nc(-c3cccnc3)no2)CC1 (stereo not drawn)
12.5%	COc1ccc(NS(=O)(=O)c2ccc(OC)c(N(C)S(=O)(=O)c3ccc(Cl)cc3)c2)cc1
15.9%	COC1=CCC2([N+](=O)[O-])CN(CCO)CC1([N+](=O)[O-])C2 (stereo not drawn)
-8.0%	Cc1cccc(OCc2nnc(SCC(=O)N(C)C3CCCCC3)o2)c1
-8.3%	Cc1cc(NC(=O)c2cc(C3CC3)on2)no1
8.7%	O=C(C[C@@H]1C/C=C\C[C@@H](Cc2ccc(F)cc2)C(=O)OC[C@H]2CCCN2C1=O)NCCO
-18.8%	CC(=O)O[C@]1(C(C)=O)CC[C@H]2[C@@H]3C=C(C)C4=CC(=O)CC[C@@H]4[C@H]3CC[C@@]21C
-0.7%	O=C(O)/C=C/C(=O)N1CCN(c2ccccc2F)CC1
-0.5%	CCc1ccccc1N(CC(=O)NCc1ccc(OC)cc1)C(=O)CCC(=O)Nc1ccccn1
-4.0%	COc1ccccc1CN=Cc1[nH]c2ccc(Br)c(Cl)c2c1O
7.9%	O=C(Nc1ccccc1)OCCN1CCN(Cc2ccccc2)CCC1=O
9.0%	Cn1c(=O)c(=O)n(C)c2cc(C(=O)NCc3ccccc3Cl)ccc21
-4.2%	COC(=O)c1ccccc1NC(=O)Cn1c(=O)n(CCCC(=O)NCc2ccccc2Cl)c(=O)c2ccccc21
-17.6%	CC(=O)c1ccc(S(=O)(=O)Nc2cccc(S(=O)(=O)NC3=NCCC3)c2)cc1
-13.7%	Cc1cc(NC(=O)CSc2nnc(-c3ccc([N+](=O)[O-])cc3)o2)no1

The list is partial, so the mix of outcomes need not match the whole.
